From PubChem
VDR inhibitor: Inhibitors of the vitamin D receptor (VDR): qHTS; Vitamin D3 receptor (Homo sapiens), P11473; VDR-SRC2-3 peptide fluorescence polarization, 2 h; Potency, µM, for inactives: max response, negative = inhibition, actives largely listed as inhibitors; 400,000 tested, 0.93% active; AID 504847, 2011; active means well fitted inhibition curve with a large enough effect; inconclusive means small, poorly fitted or top-dose-only effect, or another doubt; inactive means no such curve, though single readings can be large or run the other way; further: series mostly up to about 120 µM
Target sequence (P11473 whole entry, looked up): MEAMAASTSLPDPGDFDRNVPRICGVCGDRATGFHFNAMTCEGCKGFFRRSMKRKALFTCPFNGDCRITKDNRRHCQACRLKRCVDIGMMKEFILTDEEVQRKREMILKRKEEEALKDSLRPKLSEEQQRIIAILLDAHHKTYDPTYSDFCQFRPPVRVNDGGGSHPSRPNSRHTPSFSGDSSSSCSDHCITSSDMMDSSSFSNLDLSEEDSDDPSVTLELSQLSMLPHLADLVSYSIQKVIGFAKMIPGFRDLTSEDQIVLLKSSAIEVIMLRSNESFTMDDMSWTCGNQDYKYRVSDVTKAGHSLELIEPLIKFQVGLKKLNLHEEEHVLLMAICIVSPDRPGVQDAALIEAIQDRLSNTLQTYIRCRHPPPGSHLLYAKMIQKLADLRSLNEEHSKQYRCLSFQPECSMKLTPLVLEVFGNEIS
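FP read-out; VDR + SRC2-3 coactivator peptide; 23 nl compound by pintool; 2 h RT incubation; reagents held at 4 deg C, protected from light.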
The depositor's hits bear a star; u = inconclusive; & = joins results of further samples. On the % scale 0 is the no-effect control and ±100 the full control effect; potency means the concentration at half of the fitted maximal effect. Some of the compounds tested. The share of hits here may be higher or lower than overall.

SMILES | VDR inhibitor
Cc1ccc(C(=O)NNC(=O)c2cccnc2SCc2cccc([N+](=O)[O-])c2)cc1 | 16.4%
C/C(=N\NC(=O)c1[nH]c2c([N+](=O)[O-])cc(C)cc2c1-c1ccccc1)c1cccnc1 | 29.4%
Cc1ccccc1-n1c(-c2ccc(Br)o2)n[nH]c1=S | -9.8%
O=C(CCn1c(=O)oc2ccccc21)NCc1ccc2c(c1)OCO2 | -16.3%
COc1cc(C(=O)N[C@H](C(=O)NC2CCCCCC2)C(C)C)cc(OC)c1OC | 6.4%
CCN(CC)S(=O)(=O)c1ccc(N2CCOCC2)c(NS(=O)(=O)c2ccc(C)cc2)c1 | -17.8%
Cc1c2cnn(CC(=O)Nc3cccc(C(F)(F)F)c3)c(=O)c2c(C)n1Cc1ccccc1F | -6.9%
Cc1cccc(N=Cc2[nH]c3ccc(Br)c(Cl)c3c2O)c1 | -8.0%
O=C(CN1CCOc2ccccc21)NCc1cccs1 | 29.5%
Cn1c(=O)n(C)c2cc([N+](=O)[O-])c(N3CCN(S(=O)(=O)c4ccccc4)CC3)cc21 | -0.2%
COc1ccc(-c2cc(C(=O)NNC3=NCCC3)c3c(C)nn(-c4ccccc4)c3n2)cc1 | -18.2%
Cc1c(C(=O)N2CCN(Cc3ccccc3)CC2)sc2ncnc(N3CCOCC3)c12 | 1.1%
CC(NS(=O)(=O)c1ccc(OCC(=O)NCc2ccncc2)cc1)c1ccccc1 (configuration not stated) | -3.4%
O=C(O)/C=C\C(=O)NCc1cccnc1 | -11.6%
Cc1csc(NC(=O)C2=COCCO2)n1 | -16.7%
COC(=O)c1cccc(C(=O)N2CCCC(C(=O)c3cccc(OC(C)C)c3)C2)c1 (configuration not stated) | 1.5%
CC(NC(=O)CN1CCN(Cc2ccc(Cl)cc2)C1=O)c1ccc2c(c1)OCCO2 (configuration not stated) | 6.3%
O=C1NC[C@H](Cc2ccccc2)N(C[C@H]2CCCN2C[C@H](Cc2ccccc2)N2C[C@H](Cc3ccc(O)cc3)N(CC3CCCCCC3)C(=O)C2=O)C1=O | -15.9%
O=C(NCc1cccc(C(F)(F)F)c1)C1CCC(=O)N(C2CCCCCC2)C1 (configuration not stated) | 10.7%
COc1cccc(-c2ccc3nnc(SCC(=O)Nc4ccc(NC(C)=O)cc4)n3n2)c1 | 12.4%
COc1ccc(OCC(=O)Nc2cc(-c3nn(C)c(=O)c4ccccc34)ccc2N2CCOCC2)cc1 | -0.1%
CC(Cc1ccccc1)C(=O)NCc1ccncc1 (configuration not stated) | -7.7%
C/C(=N\Nc1nc(N2CCCCCC2)nc(N2CCCCCC2)n1)c1ccccc1 | -18.9%
Cc1cccc(Cn2cc(C(=O)Nc3ccc(S(N)(=O)=O)cc3)ccc2=O)c1 | 10.8%
O=c1c2c(-c3ccco3)csc2nc(SCc2cn3cccnc3n2)n1-c1ccccc1 | -12.1%

New compounds follow
SMILES | VDR inhibitor
CSCCC(NC(=O)C1CCC(C)CC1)C(=O)OCC(=O)c1ccc(Cl)cc1 (configuration not stated) | 5.9%
CC1CCCC(C)N1/N=C/c1ccc(O)cc1 (configuration not stated) | 19.1%
CSc1ccc2nnc(-c3ccc(C)cc3)n2n1 | 24.2%
CCC(C)NCCOCCOc1ccc(F)cc1 (configuration not stated) | 3.1%
COc1ccc(-n2nc(C(=O)NCC(=O)NCCN(C)C)c3ccccc3c2=O)c(OC)c1 | 2.2%
CCOc1ccc(NS(=O)(=O)c2ccc(C(=O)N(C)CC(=O)Nc3cccc(OC)c3)cc2)cc1 | 8.9%
CN1CCN(C(=O)Nc2ccc3c(c2)N(C)C(=O)c2ccccc2S3)CC1 | -5.7%
CCc1ccc(-c2nc(CS(=O)CC(=O)NCCc3ccccc3)c(C)o2)cc1 (configuration not stated) | -8.7%
O=C(NCSc1ccccc1)c1ccccc1 | -7.4%
Cc1ccc2c(C)c(C(=O)N(C)Cc3nccn3C)oc2c1C | -18.4%
COc1ccc2[nH]c3nc(SCC(=O)NNC(=O)c4ccc(OC)c(OC)c4)nnc3c2c1 | -8.5%
COc1ccc(C(CCN2CCOCC2)c2c(O)cc(OC)cc2OC)cc1 (configuration not stated) | -18.9%&-4.8%
CCN(CC)C(=O)[C@H]1C[C@H](CC(=O)NCc2ccc(OC)c(OC)c2)C(=O)N2CCc3c([nH]c4cc(CCC(=O)N(C)C)ccc34)[C@]12C | 4.0%
COc1ccc(NC(=O)c2nc3nc(C)cc(C(F)F)n3n2)cc1OC | -13.0%
COCCN(CC1CCCN(C2Cc3ccccc3C2)C1)C(=O)CSC (configuration not stated) | 0.5%
OC1(c2ccc(F)cc2)CSC(=Nc2cccnc2)N1Cc1ccco1 (configuration not stated) | -8.7%
CN1CCN(C(=S)c2ccc(Cl)cc2)CC1 | 9.3%
O=C(CC1C(=O)NCCN1Cc1ccoc1)NCCc1ccc(Cl)cc1 (configuration not stated) | 6.6%
CC(C(=O)NCCN1CCOCC1)(c1ccccc1)c1ccccc1 | 4.5%
CCn1c(C(=O)O)c(CC(=O)Nc2ccccc2OC)c2ccccc21 | -1.8%
C/C(=N\NC(=O)c1cccc(S(=O)(=O)Nc2ccccc2Cl)c1)c1ccc(-n2ccnc2)cc1 | 1.4%
CSc1nsc(SC)c1C(=O)N1CCN(S(=O)(=O)c2ccc(C)cc2)C1C(C)C (configuration not stated) | 4.6%
COc1ccccc1NC(=O)c1c(C)cc(C)nc1SCC(=O)c1ccc(Cl)cc1 | 11.8%
O=C(Nc1cccc(-c2nc3ncccc3o2)c1)c1sc2cc(Cl)ccc2c1Cl | 2.0%
CCOC(=O)CN1C(=O)N[C@@H](c2cccc(C(F)(F)F)c2)C(C(=O)OC)=C1C | -5.1%

(list continues)
SMILES | VDR inhibitor
COc1cc(NC(=O)Nc2ccc(Cl)c(Cl)c2)c(C(=O)O)cc1OC | -1.7%
COc1ccc(-c2cnc(-c3cccnc3)o2)cc1 | -1.5%
COc1cc(/C=C2\C(=N)N3N=CSC3=NC2=O)ccc1OS(=O)(=O)c1ccccc1[N+](=O)[O-] | u
CCCCCCCCCC[n+]1cccc2c3ccccc3ccc21 | -26.9%
CC(C)OP(=O)(c1ccc(N(C)C)cc1)C(O)c1ccccc1 (configuration not stated) | 6.3%
CCOc1ccccc1NC(=O)C(CC(C)C)NS(=O)(=O)c1ccc2c(c1)oc(=O)n2C (configuration not stated) | 11.3%
COc1ccc(OC)c2c(C)c(C)[nH]c12 | -5.0%
Cc1ccc(NC(=O)OCc2cncs2)cc1 | 3.0%
Cc1cccc(N2CCN(C(=O)c3oc(=O)c4ccccc4c3-c3ccccc3)CC2C)c1 (configuration not stated) | -11.9%
O=C(O)c1ccccc1CSc1ncccc1C(=O)O | 3.3%
O=c1c(-c2ccc(O)cc2)coc2cc(O[C@@H]3O[C@H](CO)[C@@H](O)[C@H](O)[C@H]3O)cc(O)c12 | -0.4%
O=C(c1cc(S(=O)(=O)N2CCN(c3ccccc3)CC2)ccc1Cl)N1CCCCCCC1 | -7.6%
CCOc1ccc(NC(=O)COC(=O)c2cc(C)oc2C)cc1 | -3.3%
COc1ccc(-c2cn(-c3ccc(OC)cc3)c3[n+]2-c2ccccc2CC3)cc1 | 11.8%
COc1ccc(-c2oc3ncn4nc(-c5ccccc5Cl)nc4c3c2-c2ccc(OC)cc2)cc1 | -13.8%
CCSC1=NCCN1S(=O)(=O)c1ccccc1 | 0.3%
CNC(=S)Nc1cc2oc3ccccc3c2cc1OC | 0.0%
O=C(c1noc2c1CCCCC2)N1CCOCC1 | 13.1%
O=C(CSc1nc2ccccc2c(=O)n1Cc1ccc(Cl)cc1)NCc1cccs1 | 7.0%
CCCNC(=O)[C@@H]1CCCN1C(=O)C1CCN(S(=O)(=O)c2ccc(C)cc2)CC1 | -2.5%
NCCSC1CC(=O)N(Cc2ccc(F)cc2)C1=O (configuration not stated) | -13.4%
CCOC(=O)N1CCN(C(=O)c2cc3cc(OC)c(OC)cc3[nH]2)CC1 | 14.7%
O=C(NC1CCCCCC1)c1ccc(CS(=O)(=O)Cc2ccc(F)cc2)o1 | -6.3%
CC1=C(C(=O)OC2CCCC2)C(c2ccc(F)cc2F)CC(=O)N1 (configuration not stated) | -2.3%
CC(C)C[C@@H](CC(=O)N[C@H](CC(=O)N[C@@H]1CCNC[C@H]1C(=O)N[C@H](CC(=O)N[C@@H](CCC(=O)O)CC(=O)O)Cc1c[nH]c2ccccc12)C(C)C)NC(=O)[C@@H]1CCCC[C@H]1N | -15.2%

Remaining list, next part:
SMILES | VDR inhibitor
Cc1ccc(CNC(=O)CSc2n[nH]c(N)n2)cc1 | 9.0%
Cc1nc(C)c(C(=O)O)s1 | -11.2%
O=C(O)Cc1c(O)ccc2ccccc12 | 5.7%
CC1CC(C)(C)NC(=S)N1CCC(=O)N1CCc2ccccc21 (configuration not stated) | -9.0%
COc1cccc(CNC(=O)c2cnc3sc(N4CCCC4)nn3c2=O)c1OC | 2.5%
COc1ccc([C@H]2CC(=O)C=C(c3ccc(-c4ccccc4)c(F)c3)C2)cc1OC | -15.8%
CCCCSc1nnc(CSc2nc3nc(C)cc(C)n3n2)o1 | 22.4%
CCCCCCN1CC(C(=O)OCC)C(=O)C1=O (configuration not stated) | -7.3%
N#CC1=C(N)C(C#N)(C#N)C(c2cccnc2)C2CN(C(=O)OCc3ccccc3)CC=C12 (configuration not stated) | 20µM*
COc1cccc(-n2nnc(-c3nc(-c4ccccc4F)no3)c2C)c1 | 5.5%
Nc1nc(SCC(=O)c2c(N)n(C3CC3)c(=O)[nH]c2=O)n[nH]1 | -8.7%
O=C(COc1cccc(C(F)(F)F)c1)Nc1cccnc1 | -15.9%
Cc1cc(C(=O)COc2ccc(C#N)cc2)c(C)n1-c1ccc2c(c1)OCO2 | 11.4%
COc1cccc2c1Oc1nc(-c3ccccc3)nc(SCC(=O)N3CCCCC3)c1C2 | 11.3%
CCNC(=O)CN(c1ccc(C)cc1)S(=O)(=O)c1ccc(SC)cc1 | 16.4%
O=C(NNS(=O)(=O)c1ccc(Br)cc1)c1sccc1-n1cccc1 | 12.3%
CC1CCN(C(=S)NC(=O)c2ccco2)CC1 | -0.8%
COc1cc(CNCc2cccs2)ccc1OCc1cccs1 | -2.0%
O=C(Nc1ccc(S(=O)(=O)NCC2CCCO2)cc1)c1ccc(F)cc1 (configuration not stated) | -17.5%
CCCS(=O)(=O)N1CCC(C(=O)NC2CCC(C)CC2)CC1 (configuration not stated) | 14.4%
Cc1nc2c(ccc3nc(NC(=O)C(c4ccccc4)c4ccccc4)sc32)s1 | 11.6%
CCCc1cc(-c2nc(-c3ccc(Cl)cc3)cs2)ccn1 | -0.9%
COc1ccc(C(=O)Nc2ccccc2C)cc1S(=O)(=O)N1CCOCC1 | -1.4%
CCOc1ccccc1NC(=O)N(C)CCc1c(C)nn(CC)c1C | -2.8%
NC(=O)C1CCN(C(=O)CCSCc2ccc(Cl)c(Cl)c2)CC1 | -6.9%

The list goes on:
SMILES | VDR inhibitor
CCCCCCCCn1c(N2CCN(c3cccc(Cl)c3)CC2)nc2c1c(=O)[nH]c(=O)n2C | 3.9%
Cc1oc2ccc(NS(=O)(=O)c3cccc4cccnc34)cc2c1C(=O)OC(C)C | -19.9%
C(=N\n1cnnc1)/c1ccc(OCc2ccccc2)cc1 | -8.5%
Cc1ccc(N2CC(C(=O)N3CCC(C(=O)Nc4cccc(Br)c4)CC3)CC2=O)cc1 (configuration not stated) | 20.8%
CC1CCC(C(C)C)[C@H](OC(=O)c2ccccc2)C1 (some centres not stated) | 0.6%
Cc1nc(CCNC(=O)C2CCC(=O)N(Cc3cccc(F)c3)C2)sc1C (configuration not stated) | -9.9%
Cc1ccc2ncnc(Oc3ncccc3[N+](=O)[O-])c2c1 | -8.0%
Cc1ccc2c(c1)C(=O)[C@@]1(O)CCN(c3ccccc3)C1=N2 | 1.7%
Cc1cc(C(=O)N2CCCC(Nc3ccc(C(C)C)cc3)C2)nn1C (configuration not stated) | 1.8%
CCOc1ccc(C(=O)Nc2ccc(S(=O)(=O)N3CCN(C)CC3)cc2)cc1 | 0.0%
Cc1ccccc1CC(=O)Nc1ccon1 | -9.5%
COc1ccccc1C1C(C#N)=C(N)Oc2cc(C)n(Cc3ccccn3)c(=O)c21 (configuration not stated) | 16.5%
CCN(CC(=O)Nc1ccc(NC(C)=O)cc1)CC(=O)Nc1ccc(Cl)c(Cl)c1 | -10.4%
O=C(CC(=O)N/N=C/c1ccc(F)cc1)N/N=C/c1ccc(F)cc1 | -19.1%
COc1ccc(CCN=C(NS(=O)(=O)c2ccc(Cl)cc2)c2ccccc2)cc1 | 5.1%
